Compound activity (PubChem)
HSD17B inhib: inhibitors of human HSD17B10 dehydrogenase; Q99714; 75,000 compounds, 7.6% hits; AID 893; Potency, µM (top dose mostly 57.1 µM), for the others: at the top dose activity change, negative = inhibition, hits mostly inhibitors; recombinant HSD17B10, NADH fluorescence kinetic; many of its hits are not listed in these tables; active means well fitted inhibition curve with a large enough effect; inconclusive means small, poorly fitted or top-dose-only effect; inactive means no such curve, though single readings can be large or run the other way;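 further: the protocol describes HADH2 (HSD17B10) and not the HSD17B4 of the title; nearly all actives have a fitted effect of over 70% in size; most hits overshoot -100% by far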
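20 nM HADH2, pH 9.0 Tris/Tween; cpd preinc 15 min RT; start w/ 1 mM NAD+ + 90 uM b-hydroxybutyryl-CoA; kinetic fluor ex360/em450 q30s x 4 min; delta last-first.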
Active calls of the source: *; ? = inconclusive; [ ] = dose if it differs, or a comment. On the % scale 0 is the no-effect control and ±100 the full control effect; potency means the concentration at half of the fitted maximal effect. Some of the compounds tested, so the mix of outcomes need not match the whole.

canonical_smiles	HSD17B inhib
O=C(NCc1ccco1)c1cc2ccccc2c(=O)o1	25µM*
COc1cccc(-c2cc(C(=O)NCCc3ccccc3)no2)c1	13%
CCOC(=O)c1ccn(-c2nc(-c3ccco3)cc(C(F)(F)F)n2)n1	?
CSc1nc2ccc(S(=O)(=O)N3CCc4ccccc43)cc2s1	-5%
O=C(Nc1ccncc1)c1cc2ccccc2o1	10%
COc1ccc(C2C(C(C)=O)=C(O)C(=O)N2c2cccnc2)c(OC)c1 (stereo not drawn)	-3%
Cn1nnc2cc(C(=O)N3CCCCCC3)ccc21	5%
CCOc1ccc2ccccc2c1C(=O)N[C@@H]1C(=O)N2[C@@H]1SC(C)(C)[C@@H]2C(=O)O	2%[25.6 µM]
Cc1cc(C)nc(SCc2ccccc2C#N)n1	-26%
CCCNc1cc(=O)n(C)c(=O)n1C	13%
Cc1cccnc1NC(=O)C(C)Oc1ccccc1 (stereo not drawn)	6%
Cc1cc(Nc2ccc(Br)cc2)n2nc(C)nc2n1	2%
COCC(=O)N1CCC2(CC1)CCN(c1ccccc1)CC2	-3%
c1ccc(CSc2nnc(-c3c[nH]c4ccccc34)o2)cc1	12%
Cc1nc(NCCO)c2nc(-c3ccccc3)n(CCN(C)C)c2n1	32µM*

A few values from above.
HSD17B inhib result of `Cc1nc(NCCO)c2nc(-c3ccccc3)n(CCN(C)C)c2n1` → 32µM*
HSD17B inhib result of `CCOc1ccc2ccccc2c1C(=O)N[C@@H]1C(=O)N2[C@@H]1SC(C)(C)[C@@H]2C(=O)O` → 2%[25.6 µM]
HSD17B inhib result of `CCCNc1cc(=O)n(C)c(=O)n1C` → 13%
HSD17B inhib result of `COc1cccc(-c2cc(C(=O)NCCc3ccccc3)no2)c1` → 13%

Part of the list above, field by field:
> O=C(Nc1ccncc1)c1cc2ccccc2o1
  HSD17B inhib: 10%
> Cc1cc(Nc2ccc(Br)cc2)n2nc(C)nc2n1
  HSD17B inhib: 2%
> CCOC(=O)c1ccn(-c2nc(-c3ccco3)cc(C(F)(F)F)n2)n1
  HSD17B inhib: ?
> CSc1nc2ccc(S(=O)(=O)N3CCc4ccccc43)cc2s1
  HSD17B inhib: -5%

Going on with the list:
canonical_smiles	HSD17B inhib
O=c1ccc(Br)c[nH]1	-3%
O=C(NCc1ccco1)c1ccc(CN2CCOCC2)cc1	11%
O=C(c1cnn2c(C(F)F)cc(-c3ccccc3)nc12)N1CCSCC1	-11%
CCn1ncc(C2=NOC(C(=O)Nc3cccc(C(C)=O)c3)C2)c1C (stereo not drawn)	-5%
CN1CCN(c2nc(-c3ccoc3)nc3ccccc23)CC1	1%
Cc1ccc(C(NC(=O)N2CCOCC2)=C(Cl)Cl)cc1F	-6%
Nc1nc(OCc2ccccc2)c2[nH]cnc2n1	-2%
Cc1ccc(S(=O)(=O)/N=C(\CN2CCOCC2)N2CCCC2)cc1	1%
CCS(=O)(=O)NCCc1csc(-c2ccccc2)n1	6%
O=C(CCCCn1c(=O)c2ccccc2n(CC(=O)NC2CCCC2)c1=O)NC1CCCC1	4%
C=CCOC(=O)C(C(C)=O)C(NC(=O)OC)c1cccc(C)c1 (stereo not drawn)	7%[11.4 µM]
COc1ccc(Oc2c(C)oc3cc(OC(=O)N4CCOCC4)ccc3c2=O)cc1	10%
Cn1c(=O)n(CCN2CCOCC2)c(=O)c2c1nc1n2CCCN1c1ccccc1	4%
CCOC(=O)Cc1nnc2c(Nc3ccccc3F)nc3nonc3n12	2%
CC1(C)CC(=O)C(CCC(=O)c2ccccc2)C(C)(C)N1 (stereo not drawn)	-6%
CCN(CC(=O)Nc1ccc(S(N)(=O)=O)cc1)S(=O)(=O)c1cc(C)ccc1OC	-11%
COC(=O)C1=C(NC(=O)c2cccc(OC)c2)CCS1	-3%
Brc1ccc(-c2nc(-c3ccccn3)no2)o1	0%
CC(=O)OCC1=C(C(=O)O)N2C(=O)C(NC(=O)Cc3cccs3)C2SC1 (stereo not drawn)	?
COc1ccc2c(c1OC)C(=O)N1C2SC[C@H]1C(=O)NC1CC(C)(C)NC(C)(C)C1 (stereo partly drawn)	-23%
COc1ccccc1CCn1c(=O)cnc2cncnc21	4%
Cc1cc(NC(=O)c2cccc(COc3ccc(Br)cc3)c2)no1	0%
CCOc1ccc(-c2nc(CSCC(=O)N3CCN(C(=O)c4ccco4)CC3)c(C)o2)cc1	-11%
CC(C)n1c(CN2CCN(C)CC2)nc2c1c(=O)n(C)c(=O)n2C	11%
O=C(c1ccncc1)N1CCC2(CCN(Cc3nccs3)CC2)CC1	8%
O=C(O)[C@@H](O)c1ccc(F)cc1	7%[11.4 µM]
CN1CCN(Cc2nc3c(c(=O)n(C)c(=O)n3C)n2CCCc2ccccc2)CC1	1%
c1ccc(-n2nnc3ccccc32)nc1	2%
COc1ccc(S(=O)(=O)N2CCN(c3ncnc4c(-c5ccccc5)nsc34)CC2)cc1	?
Cc1ccc(C)c(N2CCN(C(=O)C3CCCN(S(=O)(=O)c4c(C)noc4C)C3)CC2)c1 (stereo not drawn)	0%
c1ccc(-c2nc3cnccn3c2Nc2ccc3c(c2)OCCO3)cc1	0%
COc1ccccc1OCC(=O)O	17%
CCc1nc(SCC(=O)Nc2ccc(C(=O)O)cc2)n[nH]1	-2%
Brc1ccc2oc3c(N4CCOCC4)ncnc3c2c1	5%
O=C1CC(c2cccc(Oc3ccccc3)c2)NC(=O)N1 (stereo not drawn)	-3%
CC(=O)N1CCc2cc(Br)cc(S(=O)(=O)N3CCCCCC3)c21	-4%
COc1ccc(NC(=O)CSc2nnc(-c3ccc(C)cc3)n2N)cc1	8%
Cc1ccc(-c2nn3c(C)nnc3s2)cc1NC(=O)c1ccc(OC(C)C)cc1	-6%
COC(=O)c1nnn(Cc2ccccc2)c1N	1%
COc1ccc(CCNC(=O)CSc2nc(-c3ccco3)cc(C(F)(F)F)n2)cc1	-18%
Cc1onc(-c2ccccc2Cl)c1C(=O)OCC(=O)Nc1ccc2c(c1)OCO2	-7%
CCOC(=O)C1CCc2nc3ccccc3c(=O)n21 (stereo not drawn)	6%
CCOC(=O)c1cccc(NC(=O)c2cccs2)c1	-17%
Cc1csc(NC(=O)C2CCCO2)n1 (stereo not drawn)	9%
COCCN1C(=O)c2oc3cc(C)c(C)cc3c(=O)c2C1c1cccc(O)c1 (stereo not drawn)	-11%

An excerpt from above in order of molar mass, ascending:
canonical_smiles	HSD17B inhib
O=C1CC(c2cccc(Oc3ccccc3)c2)NC(=O)N1 (stereo not drawn)	-3%
Cc1ccc(S(=O)(=O)/N=C(\CN2CCOCC2)N2CCCC2)cc1	1%
Cc1cc(NC(=O)c2cccc(COc3ccc(Br)cc3)c2)no1	0%

Additional records.
canonical_smiles	HSD17B inhib
Nc1ncnc2c1ncn2CCCCC(=O)O	-6%[11.4 µM]
C=CCn1c(SCc2nc3ccccc3nc2C)nnc1-c1ccoc1C	-6%
NS(=O)(=O)c1ccc(NCc2cnc3ccccc3c2)cc1	5%[11.4 µM]
COc1ccc(Cl)cc1N1C(=O)[C@@H]2C(c3cccc(OC)c3OC)=NO[C@@H]2C1=O	-7%
Nc1ccccc1C#Cc1ccccc1	?
CS(=O)(=O)Nc1ccccc1C(=O)N1CCCC1	12%
O=C(NCc1nnc(SCC(=O)N2CCCCCC2)o1)c1ccco1	7%
COc1ccc(S(=O)(=O)Nc2ccccc2C(=O)OC2CCCN(C)C2)cc1OC (stereo not drawn)	5%
CN1CCN(Cc2c(C#N)c3ccccc3n2C)CC1	0%
O=C(OCCCCN1C(=O)c2ccccc2C1=O)c1n[nH]c2ccccc12	?
CCn1nc(NS(=O)(=O)c2ccccc2)c2cc3cccc(C)c3nc21	2%
COc1ccccc1CN1CC[C@@]2(CCCN(C(=O)c3ccncc3)C2)C1	8%
O=C1c2oc3ccc(Br)cc3c(=O)c2C(c2cccc(F)c2)N1CCO (stereo not drawn)	10%
COc1ccccc1-n1c(CNC(=O)COc2ccccc2)n[nH]c1=S	-2%
CC(=NCCCNC1CCCCC1)C1=C(O)CC(C)(C)CC1=O	-1%
O=C(OCn1nnc2ccccc2c1=O)C1=COCCO1	17%
CCOc1ccc(S(=O)(=O)Nc2ccccc2C(=O)NCc2ccco2)cc1	25µM*
CCCCN(C)C(=O)c1sc2ncn(CC)c(=O)c2c1C	0%
CCN(CC)S(=O)(=O)c1ccc(-c2nnc(SCC(=O)Nc3nc(C)cs3)o2)cc1	13%
Cc1cc(C(=O)OCC(=O)c2c(N)n(C)c(=O)n(C)c2=O)c(C)o1	8%
COc1cc2c(cc1OC)-c1cc(NC3CCCCCCC3)nc(=O)n1CC2	?
CCCN1CCN(C(=O)CN2C(=O)CC(C)(C)S(=O)(=O)c3ccccc32)CC1	1%
CS(=O)(=O)N(CC(=O)Nc1cccnc1)c1ccc2c(c1)OCO2	?
COc1ncc2nc(-c3cc(F)cc(F)c3)c(=O)n(CCC#N)c2n1	32µM*
CCc1ccc(N2CC(C(=O)NCc3ccc4c(c3)OCO4)CC2=O)cc1 (stereo not drawn)	-1%
Cc1ccc(-n2sc3ccccc3c2=O)cc1S(=O)(=O)N1CCCCC1	0.79µM*
CCOC(=O)c1c(NC(=O)CSc2nnnn2C)sc(C)c1C	-4%
COc1ccccc1N1CCN(CC(=O)c2ccc3ccn(C(C)=O)c3c2)CC1	13%
CCc1cc2c(cc3c(=O)n(CC(=O)N4CCN(c5ccccn5)CC4)nc(CC)n32)s1	-7%
O=C(O)C1CCN1C1CCCCC1 (stereo not drawn)	9%
COc1ccc(OC)c(C(=O)COC(=O)c2ccc(C)o2)c1	-25%
Cc1noc(C)c1C(=O)N1CCC(Cc2ccccc2)CC1	-3%
Cc1nc(N2CCN(c3ccccc3)CC2)nc2c1C(=O)CC(c1ccccc1)C2 (stereo not drawn)	-5%
O=c1cc(O)c2c(=O)n(-c3ccccc3)c3ccccc3c2o1	?
CCCCCOc1ccc(NC(=O)CCCC(=O)O)cc1	6%
CC(=O)c1nc(N2C(=O)C3CC=C(C)CC3C2=O)sc1C (stereo not drawn)	-5%
Cc1nonc1NC(=O)CSc1nnc(-c2ccoc2C)n1C	-1%
CCOc1ccc(N(CC(=O)Nc2ccccc2C)S(=O)(=O)c2c(C)noc2C)cc1	0%
O=C(COC(=O)c1ccc(S(=O)(=O)N2CCOCC2)cc1)Nc1nc(-c2ccccc2)cs1	1%
CC(=O)Nc1ccc(S(=O)(=O)NCCSCc2ccco2)cc1	-5%
O=C(CCN1C(=O)c2ccccc2C1=O)Nc1ccncc1	13%
Cn1c(=O)c2c(nc(CN3CCN(CCO)CC3)n2CCc2ccccc2)n(C)c1=O	-9%
COc1ccc(N=C2SC(C(=O)O)CC(=O)N2Cc2ccc(OC)c(OC)c2)cc1 (stereo not drawn)	-6%
CC(=O)N1CCC2(CCCN(c3ccccn3)C2)CC1	32µM*
Cc1ccc(C2C3=C(CC(C)(C)CC3=O)Nc3n[nH]c(C)c32)cc1 (stereo not drawn)	25µM*
O=C(CCCn1c(=S)[nH]c2cc3c(cc2c1=O)OCO3)NC1CC1	-3%
OC(Cc1nc2ccccc2[nH]1)c1ccccc1Cl (stereo not drawn)	5%
O=C(NC1=NCCS1)c1cc2ccccc2o1	-21%
CC(=O)Nc1cccc(NC(=O)C2CC3CCC2C3)c1 (stereo not drawn)	-5%
O=C(NCCN1CCOCC1)c1c(F)c(F)c(F)c(F)c1F	2%
CCN(CC)CCN1C(=O)c2oc3ccccc3c(=O)c2C1c1ccccc1 (stereo not drawn)	4%
COc1ccc(NC2=C(C)C(=O)CC2)cc1	2%
Cc1nc(NC(=O)C2CC3CCCC(C2)C3=O)sc1C (stereo not drawn)	11%
O=C1[C@@H]2[C@H]3C(=CC[C@@H]2C(=O)N1Cc1ccccc1)C1(OCCCO1)[C@H]1O[C@@H]1[C@H]3O	-5%[11.4 µM]
CCCC(=O)Nc1ccccc1NC(=O)CCC	6%
CCc1ccc2nc(NC3=NCN(CCCN4CCOCC4)CN3)nc(C)c2c1	4%
Cc1occc1C(=O)NC(C)CCc1ccccc1 (stereo not drawn)	1%
O=C(c1cc(C(F)(F)F)cc(C(F)(F)F)c1)N1CCC2(CCN(Cc3ccccc3)CC2)CC1	-10%
Cc1sc2ccccc2[n+]1CCC(=O)O	-8%[11.4 µM]
Cc1cc(NC(=O)CC(CN(C)S(=O)(=O)c2ccccc2)c2ccccc2)no1 (stereo not drawn)	-12%

Taken from the listing for reference:
canonical_smiles	HSD17B inhib
Cc1sc2ccccc2[n+]1CCC(=O)O	-8%[11.4 µM]
Cc1cc(NC(=O)CC(CN(C)S(=O)(=O)c2ccccc2)c2ccccc2)no1 (stereo not drawn)	-12%

Continued.
canonical_smiles	HSD17B inhib
O=C(OCC#CCSc1nnc(-c2ccncc2)o1)c1cccs1	2%
O=C(c1ccco1)N1CCN(C(=O)C2CCN(S(=O)(=O)Cc3ccccc3)CC2)CC1	-3%
CCOC(=O)CN1CC23C=CC(O2)C(C(=O)NCCc2ccccc2)C3C1=O (stereo not drawn)	4%
c1ccc2c(c1)nc(Nc1ccc3c(c1)OCO3)c1nnnn12	32µM*
Cc1c(Cl)cccc1NC(=O)CN1CCN(CCO)CC1	3%
CCSc1nnc(N)s1	6%
COc1ccccc1-n1cnc2cc(C(=O)NCC3CCCO3)ccc21 (stereo not drawn)	-6%
CC(C)OC(=O)c1c(F)c(F)c(N2CCOCC2)c(F)c1F	-11%
CCOC(=O)c1cc2c(ccn2C)n1CC(=O)N1CCN(c2ccccc2)CC1	-10%
